From PubChem
Yeast UUG start: yeast start codon fidelity modulation; S. cerevisiae UUG-firefly luciferase reporter, luminescence/redox ratio; activity score, % at 18.7 µM; AID 602363; 0.13% of 350,000 active;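 active means replicate mean at a twofold rise or more, about +100% in these data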;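 further: firefly luciferase made from a UUG start codon reports start codon fidelity; reporter light over untreated wells divided by growth signal over untreated wells; some hits fall short of that in this replicate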
MT1-MMP act inh: MT1-MMP (human) activation inhibition | HT1080 RFP-PRO-GFP cells, GFP/RFP ratio fluorescence, overnight; percent of plate control window, DMSO zero | AID 651647 | 0.061% of 360,000 active | P50281 | GFP/RFP ratio change, % at 20 µM;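 active means GFP/RFP ratio change of at least 30% with cell ATP level not reduced by more than half and red fluorescence within 50% of control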; further: strong numbers were not always called active
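Assay system: RFP-PRO-GFP reporter HT1080 cells; read-out basis: GFP/RFP fluorescence ratio; benchmarks: DMSO wells and RFP-L50D-GFP cells; doses: 20 µM single dose, 1% DMSO; schedule: overnight cell settling, then overnight compound exposure, 37 °C, 5% CO2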
CSC inhib: blocks cancer stem cells; 1.1% of 300,000 active; cancer stem cell-like cells viability, luminescence; inhibition, % at 7.5 µM; AID 2717;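 active means mean at 75% or more and at least half the replicates too; tested in HMLE shEcad cells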;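 further: 0% = median of negative and 100% = median of positive control wells; the first replicate is given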
eIF4H FP inh: inhibitors of RNA binding by human eIF4H | Q15056 | eIF4H fluorescence polarization binding assay | 0.94% of 290,000 active | inhibition, % at 35 µM;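 active means 50% or more with normal probe brightness, or confirmed in later tests; about a fifth of its hits are not listed in these tables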;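 further: calls also rest on retests at 20 µM and on dose response follow-up; 0% = protein and probe with vehicle and 100% = probe without protein; strong numbers were not always called active; many hits fall short of the cut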
HIV Env fusion: blocks HIV Env-driven cell-cell fusion | inhibition, % at 12.3 µM | HeLa-JRFL Env/CEM21 cell fusion, luciferase | 1.1% of 360,000 active;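 active means mean replicate inhibition score of at least 50 and every replicate individually at or above 50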;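 further: 0% = plate neutral controls and 100% = maraviroc near 300 nM; one replicate is shown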
Rce1 inhib: blocks yeast Ras-converting enzyme | Q03530 | yeast membranes, quenched prenylated peptide cleavage fluorescence | calls only | 0.27% of 290,000 active | AID 2563;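 active means fall in fluorescence gain of 50% or more versus controls, with final raw signal at or below 3038400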;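 further: plate controls were neutral control wells for no effect and wells lacking membranes for full effect; tested at 10 µM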
Target sequence (Q03530 whole entry, looked up): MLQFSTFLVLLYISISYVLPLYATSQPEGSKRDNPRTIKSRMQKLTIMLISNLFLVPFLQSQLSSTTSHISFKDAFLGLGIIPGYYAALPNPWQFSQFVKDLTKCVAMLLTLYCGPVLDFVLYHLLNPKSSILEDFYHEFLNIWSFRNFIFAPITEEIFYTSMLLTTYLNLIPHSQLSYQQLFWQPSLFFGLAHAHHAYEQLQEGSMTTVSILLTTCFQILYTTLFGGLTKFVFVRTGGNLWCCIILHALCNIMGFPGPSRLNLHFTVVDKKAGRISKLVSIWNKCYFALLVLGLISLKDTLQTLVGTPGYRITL
PABP polyA inh: blocks human PABP binding to poly(A) RNA | P11940 | fluorescence polarization | inhibition, % at 35 µM | 1% of 290,000 active | AID 2014;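 active means 50% or more with normal probe brightness, or confirmed in later tests; about a fifth of its hits are not listed in these tables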;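 further: calls also rest on retests at 20 µM and on dose response follow-up; controls were probe without protein and protein plus probe with vehicle; some compounds called inactive have numbers as strong as hits; many hits fall short of the cut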
MT1-MMP act inh RFP: recorded beside MT1-MMP act inh, whose call it bears; RFP signal change, %; measured here: RFP expression control read;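 0 = vehicle wells; hits needed this value within 50% of zero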
* = called active by the depositor; i = inactive; / = no result given; + = active, no number.

SMILES	Yeast UUG start	MT1-MMP act inh	MT1-MMP act inh RFP	CSC inhib	eIF4H FP inh	HIV Env fusion	Rce1 inhib	PABP polyA inh
Cc1sc(NC(=O)C2CC=CCC2C(=O)O)c(C(=O)OC(C)C)c1C (stereo not given)	-11	-1	1	-10	-3	-57	i	5
O=C(CN1C(=O)C(=O)c2ccccc21)OCN1C(=O)c2ccccc2C1=O	-5	1	3	-6	-10	-11	i	-5
O=C(N/N=C/c1ccc(Cl)cc1)c1n[nH]c2c1CCCC2	/	14	-5	60	-9	-305	i	-1
O=C(NCc1cccs1)C1CCCN1C(=O)Nc1cccc(Cl)c1 (stereo not given)	/	-2	4	-18	-4	-1	i	3
Cc1cc(N2CCCC2=O)cc(C)c1S(N)(=O)=O	-20	3	6	-16	5	/	i	4
O=C(O)CCC(=O)Nc1ccc(Br)c(Cl)c1	-14	1	-3	1	-9	/	i	-14
CCN(CC(=O)Nc1c(F)cccc1F)C(=O)c1cccnc1SC	-15	-2	3	-2	-8	40	i	-6
CSc1ccccc1C(=O)Nc1ccccc1C	/	-1	3	-4	3	-9	i	0
CCOc1cc(/C=C/C(=O)OCC(=O)NCCN2C(=O)CSC2=O)ccc1OCC(C)C	-12	-3	-3	/	/	-2	/	/
O=C(NNC(=O)c1ccc(O)c(Cl)c1)c1cccc(S(=O)(=O)N2CCOCC2)c1	/	2	0	11	/	25	+	/
Cc1ccc(C)c(NC(=O)Nn2cnnc2)c1	-12	-3	-3	9	5	-13	i	-6
CC1CC(C)CN(CCCNC(=O)CN2C(=O)c3cccnc3Oc3ccccc32)C1 (stereo not given)	-7	-13	-2	-16	2	-9	i	7
O=C1C(=Cc2cccs2)Oc2ccccc21	-6	-9	-5	/	/	-136	/	/
CC(=O)OC(C(=O)NC1CCCCC1)c1ccc(Cl)cc1 (stereo not given)	-15	9	7	-1	0	-52	i	-5
CCOC(=O)N1CCN(C(=O)c2ccc3c(c2)NC(=O)/C(=C\c2cccc(C)c2)S3)CC1	1	5	-5	33	2	-1	i	3
CNc1c(NS(=O)(=O)c2ccc(Cl)cc2)c(=O)oc2ccccc12	-11	1	5	-9	-2	14	i	2
COc1ccc(/C=N/NC(=O)c2cc(-c3cccc(C)c3)nc3ccccc23)cc1O	/	8	4	19	/	-1	i	/
COc1ccccc1N1CCN(C(=O)Cn2c(=O)[nH]c3ccsc3c2=O)CC1	-1	-3	2	-18	-2	-82	i	6
O=C(Nc1ccccc1)C1C2/C=C\CCCCC21 (stereo not given)	/	1	3	-9	1	-7	i	-7
Cc1ccc(C(=O)Oc2ccc(N3C(=O)CCC3=O)c(C)c2)cc1	-15	-2	3	-10	-4	21	i	8
O=C(Cc1ccc(Cl)cc1)NC(=S)Nc1ccccc1N1CCOCC1	-17	-12	-20	34	-7	/	/	-19
Cc1csc(Nc2nc(N)c(C(=O)Nc3ccccc3)o2)n1	-2	4	0	-14	0	-2	i	16
COc1ccc(N2CCN(c3oc(-c4ccc(OC)c(OC)c4)nc3C#N)CC2)cc1	/	2	-4	5	-2	/	i	-3
CCC(=O)c1cn(CC(=O)Nc2ccc(OC)cc2)c2ccccc12	-8	-1	-5	-12	0	5	/	0
CCOC(=O)c1c(C)nc(-c2ccccc2)nc1N	-6	3	3	1	3	-275	i	6
COc1ccccc1C(=O)NCCC(=O)N(Cc1ccco1)Cc1cccs1	-3	-7	2	/	2	12	i	7
O=C1CCC(=O)O1	-35	-3	4	-8	/	/	/	/
COC(=O)c1ccccc1NC(=S)NC(=O)c1ccc2ccccc2c1	/	0	-1	-3	-2	5	i	-1
CCN(C(=O)COC(=O)c1cccs1)c1c(N)n(Cc2ccccc2)c(=O)[nH]c1=O	-15	0	2	-3	/	-16	i	/
COc1cc(/C=C2\NC(=O)NC2=O)cc(Br)c1OC	-19	0	0	-8	-6	36	i	-5
CC1CCN(CCCNS(=O)(=O)c2ccc3c(c2)CCN3C(=O)C2CC2)CC1	-2	-2	0	2	10	-15	i	-2
O=C(Nc1ccccc1C(=O)NCCCn1ccnc1)c1ccccc1	-14	1	0	-2	-4	/	i	-10
COc1ccccc1CNC(=O)c1cc2ccccc2o1	-11	3	1	-5	2	3	i	7
Cc1ccc(/C=N/Nc2nnc(Cl)c3ccccc23)cc1	-23	-14	-6	1	2	-370	i	16
CCOC(=O)c1ccc(N2Cc3ccccc3C2=NC(=O)c2cccs2)cc1	/	-4	-4	/	-5	/	/	13
COc1nc(-c2ccccc2)ccc1-c1noc(-c2cccnc2)n1	-12	-11	-5	-9	-2	-29	i	10
CCCCn1c(N)c(N(CCOC)C(=O)C2CCN(S(=O)(=O)c3ccc(C)c(C)c3)CC2)c(=O)[nH]c1=O	-8	-1	0	-9	/	4	i	/
Cn1c(=O)c2c(-c3ccccc3)n(-c3cc(Cl)c([N+](=O)[O-])cc3O)cc2n(C)c1=O	3	2	-1	/	/	21	/	/
CC(C)(C)c1ccc(C2=CSC3=NCCN23)cc1	0	-5	-3	20	-4	12	i	1
Cc1nn(-c2ccccc2)c(N2CCCC2)c1/C=N/n1cnc2scc(-c3ccccc3)c2c1=O	21	-6	-6	14	2	/	i	-8
CCOC(=O)CSc1nc(COc2ccccc2)nc2ccccc12	-14	-3	3	3	-1	6	i	-11
CSC1=N/C(=C\c2ccc(F)cc2)C(=O)S1	-11	-4	2	-6	3	/	i	6
CCOc1ccc(CN(C)C(=O)Cc2c[nH]c3ccccc23)cc1	-6	1	-4	6	-3	11	i	9
CCc1noc(C)c1C(=O)Nc1cc(S(=O)(=O)N2CCOCC2)ccc1OC(C)C	-1	2	1	/	/	-2	i	/
CCNC(=O)C1CCCN(C(=O)c2ccc3ccccc3c2)CC1 (stereo not given)	-6	0	0	/	/	10	/	/
CC(C)NC(=O)CSc1nnc(-c2ccc(S(=O)(=O)N3CCCC3)cc2)n1CC1CCCO1 (stereo not given)	-6	4	7	-4	11	/	i	-6
COc1ccccc1C1Nc2ccccc2NC2=C1C(=O)CC(C)(C)C2 (stereo not given)	-15	-3	0	-13	-2	10	i	1
COc1ccccc1CNc1ccc(N2CCCCC2)cc1	-16	21	11	-3	3	/	i	6
CCOc1cc(NC(=O)c2ccco2)c(OCC)cc1NC(=O)Cc1ccc(OC)c(OC)c1	-7	-2	-3	-6	-4	11	i	1
O=C(Cn1c(=O)n(CC(=O)N2CCCCC2)c(=O)c2sccc21)NCc1ccccc1	/	-3	-1	-8	-5	4	i	1
CCCCSc1nc2sc3c(c2c(=O)[nH]1)CC(C)(CC)OC3 (stereo not given)	-16	1	-1	-3	-3	-2	i	4
C(=N\N1CCOCC1)/c1nc(-c2ccccc2)n2ccccc12	/	1	-1	-2	6	-5	i	-1
CCCC[C@H]1COCCS(=O)(=O)N1Cc1ccc(Br)cc1	-13	-1	-7	0	-5	30	i	-11
Cn1cc(S(=O)(=O)Nc2cccc(F)c2)c(=O)n(C)c1=O	-10	3	6	-6	-1	-37	i	1
C/C(CCC1CC(C)OC1=O)=N/Nc1nc(-c2ccccc2)cs1 (stereo not given)	/	3	-4	1	9	/	i	-7
O=C(Nc1cccc(NC(=O)c2cccs2)c1)c1ccc2c(c1)OCCO2	/	0	2	/	-11	8	i	-3
CCCC(=O)Nc1cc(-c2nc3ncccc3o2)ccc1C	-6	5	5	5	4	/	i	-1
Cc1cccc(NC(=O)CSCC(=O)Nc2ccc(N3CCOCC3)cc2N2CCOCC2)c1	-1	-1	-3	/	/	10	/	/
O=C(Cn1cnc(S(=O)(=O)N2CCCCC2)c1)N1CCN(c2ccc([N+](=O)[O-])cc2)CC1	4	3	-1	-20	-11	/	i	6
O=C1c2ccccc2C(Nc2ccc3c(c2)OCCO3)N1Cc1ccc2c(c1)OCO2 (stereo not given)	-25	0	-3	-18	-6	39	i	-6
Next records follow:
SMILES	Yeast UUG start	MT1-MMP act inh	MT1-MMP act inh RFP	CSC inhib	eIF4H FP inh	HIV Env fusion	Rce1 inhib	PABP polyA inh
CC(=O)c1cnc(Nc2ccccc2)s1	-7	6	2	-10	2	/	i	-3
CN(C)c1ccc(NC(=O)Nc2ccc3snnc3c2)cc1	/	7	1	-1	-18	/	i	1
S=C(NCCCN1CCOCC1)N(Cc1ccccc1)Cc1ccccc1	-17	3	1	3	-1	12	i	1
Cc1ccc(NC(=S)N2CCN(C(=O)C3CCCO3)CC2)cc1 (stereo not given)	/	3	6	/	12	15	i	2
COc1ccc(C(=O)Cn2nnc(-c3ccccc3NC(=O)C(F)(F)F)n2)cc1	-15	-4	0	17	2	-49	i	-1
CCOC(=O)c1cnc2ccc(OC)cc2c1Nc1ccc2c(c1)OCCO2	-9	-2	-10	37	-12	/	i	0
O=C(C[n+]1ccccc1)c1ccc(-c2ccccc2)cc1	/	/	/	31	2	8	i	-11
O=C(NC12CC3CC(CC(C3)C1)C2)C1CC(=O)N(c2ccccc2)C1 (stereo not given)	17	-1	-2	7	-5	/	i	-6
C#CCn1c(=NC(=O)c2ccc(S(=O)(=O)N3CCCc4ccccc43)cc2)sc2cc(S(N)(=O)=O)ccc21	/	-22	-17	/	-18	34	i	-6
Cc1nc2nc(SCC(=O)N3CCOCC3)nn2c(C)c1Cc1c(F)cccc1Cl	-22	5	-3	/	-3	-29	i	3
CC(C)(C)C(=O)CNS(=O)(=O)c1ccc(S(=O)(=O)NC2CC2)cc1	-8	1	2	3	-6	1	i	1
CC1CCC(Nc2nnnn2-c2ccccc2)CC1 (stereo not given)	-2	5	-14	9	-10	/	i	6
COc1cc(CN(C)Cc2cc(=O)n3ccsc3n2)ccc1OC(F)F	/	-7	-10	7	-6	15	i	-6
CCOc1ccccc1C(=O)OCC(=O)NCc1ccc2c(c1)OCO2	-12	0	4	16	/	-2	/	/
CCOc1cc(/C=C/c2nc3ccccc3c(=O)[nH]2)ccc1O	-10	-3	1	16	0	1	i	4
COc1ccc(-n2c(=S)[nH]c3ccccc3c2=S)cc1	-17	4	2	19	1	-7	i	7
CCN(CC)C(=O)[C@H]1CC(CC(=O)NCC23CC4CC(CC(C4)C2)C3)C(=O)N2CCc3c([nH]c4ccc(OC)cc34)[C@]12C (stereo not given in full)	1	-1	-6	/	/	35	/	/
COc1ccccc1-c1cn[nH]c1-c1ccc(OCC(=O)NN)cc1O	-12	2	1	11	-10	11	i	-3
C=CCOC(=O)C1=C(C)N(C)C(=O)NC1c1cc2c(cc1Br)OCO2 (stereo not given)	-13	4	-4	-5	-2	/	i	-12
COc1ccccc1NC(=O)CSc1nnc(C)s1	-10	3	6	/	12	-7	i	-13
CCc1ccccc1NC(=O)c1cccc(N2C(=O)C3C4CCC(C4)C3C2=O)c1 (stereo not given)	-15	3	-4	-14	-2	-15	i	4
O=C(COc1ccccc1Cl)Nc1cc(Cl)ccc1Oc1ccccc1	-22	3	-6	89*	0	/	i	3
CCOC(=O)c1cc(C)sc1NC(=O)CSC1=NCCS1	-6	3	-1	20	-12	24	i	4
Cc1ccc(CCNS(=O)(=O)c2ccc3c(c2)NC(=O)C(C)C(=O)N3)cc1 (stereo not given)	-6	-3	-4	/	18	-9	i	18

6 records picked at random from the list so far:
SMILES	Yeast UUG start	MT1-MMP act inh	MT1-MMP act inh RFP	CSC inhib	eIF4H FP inh	HIV Env fusion	Rce1 inhib	PABP polyA inh
Cc1ccc(NC(=S)N2CCN(C(=O)C3CCCO3)CC2)cc1 (stereo not given)	/	3	6	/	12	15	i	2
CC(C)(C)c1ccc(C2=CSC3=NCCN23)cc1	0	-5	-3	20	-4	12	i	1
O=C(CN1C(=O)C(=O)c2ccccc21)OCN1C(=O)c2ccccc2C1=O	-5	1	3	-6	-10	-11	i	-5
CCOc1cc(/C=C/C(=O)OCC(=O)NCCN2C(=O)CSC2=O)ccc1OCC(C)C	-12	-3	-3	/	/	-2	/	/
COc1ccc(-n2c(=S)[nH]c3ccccc3c2=S)cc1	-17	4	2	19	1	-7	i	7
O=C1C(=Cc2cccs2)Oc2ccccc21	-6	-9	-5	/	/	-136	/	/
